# AID923: qHTS Assay for Allosteric/Competitive Inhibitors of Caspase-1: Spectroscopic Profiling in AFC Spectral Region | 1.1% of 75,000 active | compound fluorescence, AFC spectral region (405/520 nm); almost no hit is shown here | AID 923, 2007 | Potency, µM (titrated, usually from 57.5 µM), inactives show at the highest dose fluorescence increase, actives largely listed as activators; active means well fitted activation curve with a large enough effect; inconclusive means small, poorly fitted or top-dose-only effect;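 further: potency means the concentration at half of the fitted maximal effect; 0% is about no effect; scaled to a free AFC standard on each plate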
#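 Titrations up to 57 uM read every 20 sec for 3 min (405/520 nm) with 50 nM caspase 1 and 5 uM Ac-WEHD-AFC, pH 7.5 HEPES buffer. Fluorescence-vs-time intercept gave baseline, scaled against on-plate AFC standard.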
# A647 fluor: A647 region autofluorescence | Compound fluorescence, A647 channel (570/671 nm), Tris buffer | max dye-equivalent concentration, M | 59,000 tested, under 10 active | AID 592; active means above 1 µM dye equivalent; inconclusive means 0.1 to 1 µM; inactive means 0.1 µM or less;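 further: values scaled relative to a standard on each plate; highest value over a series up to 38 µM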
#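 Compound fluorescence was measured in 100 mM Tris buffer, pH 8.0, after 15 min at room temperature, using 570 nm excitation and 671 nm emission filters. Signal was normalized to a per-plate Alexa 647 standard curve and expressed as dye-equivalent concentration at each compound concentration.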
# TSHR ag: activates the human thyroid stimulating hormone receptor. 0.48% of 73,000 active. Potency, µM (doses to about 57.1 µM), for inactives: at the highest dose activation, usual class: activators. HEK293-CNG-TSHR cells (CNG channel as cAMP sensor), membrane potential dye, cAMP; active = well fitted activation curve of enough size with the parental cells flat; inconclusive = any curve in the parental cells; inactive = parental cells flat and receptor cells flat or falling; further: potency means the concentration at half of the fitted maximal effect; % of control where 0% means no effect; weak receptor curves with flat parental cells got no call and are not listed
# Target sequence (P16473 whole entry, looked up): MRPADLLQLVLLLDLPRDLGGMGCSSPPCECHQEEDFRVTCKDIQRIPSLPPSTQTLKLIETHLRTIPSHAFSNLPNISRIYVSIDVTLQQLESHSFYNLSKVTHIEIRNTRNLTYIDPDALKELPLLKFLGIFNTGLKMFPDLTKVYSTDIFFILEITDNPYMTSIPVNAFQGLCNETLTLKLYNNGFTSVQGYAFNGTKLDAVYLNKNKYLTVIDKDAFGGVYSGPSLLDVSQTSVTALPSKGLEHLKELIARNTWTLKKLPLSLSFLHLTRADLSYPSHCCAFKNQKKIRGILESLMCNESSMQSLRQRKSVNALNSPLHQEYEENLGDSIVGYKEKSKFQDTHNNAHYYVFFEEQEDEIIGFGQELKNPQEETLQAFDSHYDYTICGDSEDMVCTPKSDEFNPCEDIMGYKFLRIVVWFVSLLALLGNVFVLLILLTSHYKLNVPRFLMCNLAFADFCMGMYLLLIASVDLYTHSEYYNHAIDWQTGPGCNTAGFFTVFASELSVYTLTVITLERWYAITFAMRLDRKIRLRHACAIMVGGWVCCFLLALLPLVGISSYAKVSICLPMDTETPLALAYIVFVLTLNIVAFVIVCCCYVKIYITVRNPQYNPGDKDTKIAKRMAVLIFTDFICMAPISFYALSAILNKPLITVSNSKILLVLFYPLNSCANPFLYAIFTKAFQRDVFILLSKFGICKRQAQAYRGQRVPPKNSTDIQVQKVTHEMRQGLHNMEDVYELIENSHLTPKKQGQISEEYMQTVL
#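 HEK 293 cells stably expressing TSHR and a modified CNG channel, with CNG-only parental cells as counterscreen, were preloaded 60 min at room temperature with membrane potential dye containing 100 uM RO 20-1724. Compound exposure was 30 min, and depolarization was read as fluorescence at 590 nm.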
# A488 fluor: A488 region autofluorescence. max dye equivalency, M. AID 591. compound autofluorescence, A488 spectral region, dye equivalency; stronger effect = higher value. 0.1% of 59,000 active; active = above 10 nM dye equivalent; inconclusive = 1 to 10 nM; inactive = 1 nM or less; about half of its hits are not listed in these tables;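 further: highest value over a series up to 38 µM; compound alone in buffer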
#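 Read-out: relative fluorescence at 480/540 nm, expressed as Alexa 488 dye-equivalent concentration from a six-point A488 standard included per plate. Conditions: 100 mM Tris, pH 8.0; 15 min incubation, room temperature.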
# Resorufin autofl: resorufin region autofluorescence | Compound fluorescence, resorufin region 547/598 nm, buffer; stronger effect = higher value | max dye-equivalent concentration, M | 0.04% of 59,000 active | AID 588; active = above 10 nM dye equivalent; inconclusive = 1 to 10 nM; inactive = 1 nM or less; a few of its hits are not listed in these tables; further: highest value over a series up to 38 µM
#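 Dye-equivalent concentration values derive from comparing each well's 547/598 nm fluorescence against resorufin standards included on every plate. Incubation was 15 min at room temperature in 100 mM Tris, pH 8.0.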
# Numbers without * were called inactive; i = inactive; ? = inconclusive; / = not tested or not shown; & = joins results of further samples; [ ] = remark or other dose. An excerpt; the hit share may differ from the screen's.
no.	SMILES	AID923	A647 fluor	TSHR ag	A488 fluor	Resorufin autofl
1	COC(=O)[C@@]1(Cc2ccccc2)[C@H]2c3cc(C(=O)N(C)C)n(C)c3C[C@H]2CN1C(=O)c1ccccc1	1.0%	/	?	/	/
2	CC(C)n1cnc2c(C(=O)N[C@H]3CN4CCC3CC4)cc(Cl)cc21	-2.9%	/	?	/	/
3	CN1CCN(C(=O)COc2ccc3ccccc3c2Br)CC1	14%	1.7e-09	0%	i	i
4	Oc1c(Cl)cccc1Cl	-0.1%	/	-3%	/	/
5	O=C1CCCC2C3CCCN4CCCC(CN12)C34 (centres undefined)	0.3%	2.7e-08	-3%	i	i
6	Cn1ncnc2c(=O)n(C)c(=O)nc1-2	7.5%	1e-09	?	i	i
7	COC(=O)[C@H]1[C@H](c2ccccc2)C(=O)[C@@]2(O)c3ccccc3O[C@@]12c1ccccc1	0.1%[11.5 µM]	/	-5%[11.4 µM]	/	/
8	CCCC(=O)Nc1ccc(N2CCN(CC)CC2)c(Cl)c1	1.7%	1e-09	2%	i	i
9	c1cnc(N2CC[C@@]3(CCCNC3)C2)nc1	7.7%	1e-09	?	i	i
10	COc1ccc2c(c1)[C@]13CCCC[C@@H]1[C@H](C2)N(C)CC3	2.0%	1.1e-08	?	i	i
11	CN1CCC(c2c[nH]c3ccc(O)cc23)CC1	-2.1%&-0.1%	1.4e-08	4%&-4%	i	i
12	CC(=NCCCN1CCOCC1)c1c(O)[nH]c(=O)[nH]c1=O	-2.1%	2.4e-08	0%	i	i
13	Cc1ccc2occ(CN3CC4CC(C3)c3cccc(=O)n3C4)c(=O)c2c1 (centres undefined)	0.4%	/	8%	/	/
14	CN[C@@H]1C[C@@H](c2ccc(Cl)c(Cl)c2)c2ccccc21	-1.9%	3.3e-09	/	i	i
15	Cc1ccc(C)c(NC(=O)CSc2nnc([C@@H](N)Cc3c[nH]c4ccccc34)o2)c1	2.8%	1e-08	-10%	i	i
16	COc1ccccc1N(CC(=O)NC1CCCCC1)C(=O)c1cnn(C(C)C)c1	0.2%	2.7e-08	5%	i	i
17	Cl.Cl.Cl.Cl.Cl.Cl.N.N.N.N.NNNNN.NNNNN.O.O.[Ru].[Ru].[Ru]	1.1%	/	-8%	/	/
18	O=C(C1CCN(c2nc3ccc(Br)cc3s2)CC1)N1CCC2(CC1)OCCO2	-0.4%	/	19%	/	/
19	CC1=NN=C(c2ccc(N)cc2)c2cc3c(cc2C1)OCO3	4.8%&-2.9%	1.9e-09	4%&7%	i	i
20	CN(C)CCN(C)CCc1ccc(Cl)c(Cl)c1	-1.4%	/	0%	/	/
21	CC(=O)OC1N=C(c2ccccc2)c2ccccc2NC1=O (centres undefined)	/	1.5e-08	/	i	i
22	O=c1c(O)c(-c2ccc(O)c(O)c2)oc2cc(O)cc(O)c12	-1.9%	2.7e-09&2.4e-09&4.8e-09&3.1e-08	-34%&3%[inhibitor]	i	i
23	CCOc1ccccc1-n1c(O)c(C=NCc2ccc3c(c2)OCO3)c(=O)[nH]c1=O	0.7%	1e-09	9%	i	i
24	OCCN(CC#CC(O)(c1ccccc1)C1CCCC1)CCO (centres undefined)	1.8%	4.5e-08	-2%	i	i
25	CCN1C[C@@]2(COC)[C@H](O)C[C@H](OC)[C@@]34[C@@H]5C[C@@]6(O)[C@H](OC(=O)c7ccccc7)[C@H]5[C@@](OC(C)=O)([C@H]([C@@H](OC)[C@H]23)[C@H]14)[C@H](O)[C@@H]6OC	/	4.8e-09	1%	i	i
26	Cn1c(O)c(C=NCc2cccs2)c(=O)n(C)c1=O	-0.9%	/	0%	/	/
27	O=C(COc1ccc(S(=O)(=O)N2CCCCC2)cc1)N1CCN(Cc2ccccc2)CC1	-0.1%	1e-09	2%	i	i
28	NC(CCl)=N[C@H]1CN2CCC1CC2	-0.1%[11.5 µM]	3.2e-09	-9%[11.4 µM]	i	i
29	O=C(c1csnn1)N1CCC[C@@]2(CCN(Cc3ccncc3)C2)C1	2.1%	1.7e-09	1%	i	i
30	C[C@@H](N)Cn1ccc2cc(F)c(Cl)cc21	-1.2%	/	-14%	/	/
31	C[C@H](c1ccccc1)N1CCN([C@@H](C)c2ccccc2)CC1	-0.9%[11.5 µM]	2e-09	9%[11.4 µM]	i	i
32	O=[N+]([O-])c1cccc(O)c1	4.2%	/	?	/	/
33	CS(=O)(=O)N1CCC2(CCCN(Cc3ccncc3)C2)CC1	2.8%	6.6e-09	6%	i	i
34	CCN(CC)c1ccc(N=Cc2c(O)n(CCC3=CCCCC3)c(=O)[nH]c2=O)cc1	14%	3.5e-09	9%	?	i
35	O=c1[nH]c(=O)n(-c2cccc(Cl)c2)c(O)c1C=NCCCN1CCOCC1	-0.7%	1e-09	-2%	i	i
36	Cc1ccc(N)c([N+](=O)[O-])c1	-0.4%	/	?	/	/
37	C=CC(=O)OCCO	1.1%	/	?	/	/
38	COc1ccc(OC)c(CC(=O)O)c1	-1.1%	3.5e-08	3%	i	i
39	O=C(c1ccncc1)C12CN3CN(CN(C3)C1)C2	0.0%	/	5%	/	/
40	O=[N+]([O-])c1cccc2c([N+](=O)[O-])cccc12	-2.4%	/	3%	/	/
41	CCCN(CCC)[C@H]1CCc2c(F)ccc(O)c2C1	-5.1%&-1.2%	3e-09&1e-09	?	i	i
42	ClC(Cl)Br	2.5%	/	-5%	/	/
43	N[C@@H](CCCCP(=O)(O)O)C(=O)O	-5.1%	/	20%	/	/
44	COc1ccc(CCn2c(O)c(C=NCc3cccnc3)c(=O)[nH]c2=O)cc1OC	-1.5%	1.8e-09	2%	i	i
45	CCC(=O)c1c(O)n(C2CCCCCC2)c(=O)[nH]c1=O	0.0%	2e-08	0%	i	i
46	CCOC(=O)c1ccc2[nH]c(-c3ccc(S(=O)(=O)F)cc3)cc(=O)c2c1	1.2%[11.5 µM]	1e-09	0%[11.4 µM]	i	i
47	CSc1ccc2c(c1)c(CCN)c(C)n2Cc1ccccc1Cl	-0.5%[11.5 µM]	1e-09	-3%[11.4 µM]	i	i
48	CN(C)CCN=Cc1c(O)n(-c2cccc3ccccc23)c(=O)[nH]c1=O	-1.5%	1e-09	5%	i	i
49	NNc1nncn1N	1.3%[11.5 µM]	9.2e-09	-7%[11.4 µM]	i	i
50	N#CC(C(=O)C12CC3CC(CC(C3)C1)C2)c1nc2ccccc2[nH]1 (centres undefined)	2.3%	1.1e-08	?	i	i

# Five entries from above in another layout.
# Results follow in this order: AID923, A647 fluor, TSHR ag, A488 fluor, Resorufin autofl
(45) CCC(=O)c1c(O)n(C2CCCCCC2)c(=O)[nH]c1=O
→ 0.0%, 2e-08, 0%, i, i
(31) C[C@H](c1ccccc1)N1CCN([C@@H](C)c2ccccc2)CC1
→ -0.9%[11.5 µM], 2e-09, 9%[11.4 µM], i, i
(48) CN(C)CCN=Cc1c(O)n(-c2cccc3ccccc23)c(=O)[nH]c1=O
→ -1.5%, 1e-09, 5%, i, i
(37) C=CC(=O)OCCO
→ 1.1%, /, ?, /, /
(50) N#CC(C(=O)C12CC3CC(CC(C3)C1)C2)c1nc2ccccc2[nH]1 (centres undefined)
→ 2.3%, 1.1e-08, ?, i, i

# Profiles as entered above. Values in the order: AID923	A647 fluor	TSHR ag	A488 fluor	Resorufin autofl
# CS(=O)(=O)N1CCC2(CCCN(Cc3ccncc3)C2)CC1 as listed: 2.8%	6.6e-09	6%	i	i
# O=[N+]([O-])c1cccc2c([N+](=O)[O-])cccc12 as listed: -2.4%	/	3%	/	/

# (further entries)
no.	SMILES	AID923	A647 fluor	TSHR ag	A488 fluor	Resorufin autofl
51	Cc1ccccc1-n1c(O)c(C=NCCN2CCOCC2)c(=O)[nH]c1=O	-0.2%	1.4e-08	1%	i	i
52	CN(C(=O)Cc1ccccc1)[C@H](CN1CCCC1)c1ccccc1	-1.2%	/	?	/	/
53	CC1(C)CC(=O)C(C=NCCN2CCN(C(=O)Cc3ccc(Cl)cc3)CC2)=C(O)C1	0.0%	5.5e-09	4%	i	i
54	Nc1ccc(-c2ccccc2)cc1	0.7%	/	-9%	/	/
55	Cc1ccc2cc3cc(C(=O)N4CCC5(CC4)OCCO5)oc3nc2c1	0.9%	5.8e-09	6%	i	i
56	Clc1ccc(C(c2ccc(Cl)cc2)C(Cl)Cl)cc1	0.3%	/	?	/	/
57	COCCOC(=O)C1=C(C)OC(N)=C(C(=O)OC)C12C(=O)Nc1ccccc12 (centres undefined)	-0.2%	1.2e-09	-1%	i	i
58	COc1ccc(CC2c3cc(OC)c(OC)cc3CCN2C)cc1OC (centres undefined)	3.9%&0.6%	1.7e-08	3%	i	i
59	Cc1cccc(C)c1NC1=NCCCCS1	-2.1%	1.8e-08	5%	i	i
60	O=C1c2ccccc2C(=O)N1Cc1nc2ccccc2c(=O)n1-c1cccnc1	/	1e-09	/	i	i
61	O=C(NCc1nnc(SCC(=O)N2CCN(c3ccccc3)CC2)o1)c1ccco1	-0.2%	2.9e-08	?	i	i
62	Cc1ccc(-n2c(O)c(C=NCCN3CCOCC3)c(=O)[nH]c2=O)cc1	/	7.5e-09	/	i	i
63	COc1cccc(CN2CCCCC2c2cccnc2)c1 (centres undefined)	-1.6%	/	12%	/	/
64	CN(C)CCN=Cc1c(O)n(CCC2=CCCCC2)c(=O)[nH]c1=O	2.5%	/	2%	/	/
65	CC1(C)CCC(C)(C)c2c1ccc(O)c2Cc1c(O)ccc2c1C(C)(C)CCC2(C)C	2.2%[11.5 µM]	4.5e-08	-15%[11.4 µM]	i	i
66	O=c1[nH]c(=O)n(Cc2ccccc2)c(O)c1C=NCCCn1ccnc1	-1.1%	3.5e-08	0%	i	i
67	CC(C)[C@@]1(NC(=O)[C@@H]2C[C@@H]3c4cccc5[nH]cc(c45)C[C@H]3N(C)C2)O[C@@]2(O)[C@@H]3CCCN3C(=O)[C@H](Cc3ccccc3)N2C1=O	/	1e-09	/	i	i
68	CC(C)c1ccc2c(c1)CC[C@@H]1[C@@](C)(CN)CCC[C@@]21C	/	1e-09	?	i	i
69	CP(C)(=O)CCC(=O)O	-1.0%	/	2%[11.4 µM]	/	/
70	N[C@@H](Cc1c[nH]c2ccccc12)c1nnc(SCc2ccccc2F)o1	2.1%	2.8e-09	/	i	i
71	C/C=C1\C[C@H](C)[C@](O)(CO)C(=O)OCC2=CCN3CC[C@@H](OC1=O)[C@@H]23	/	3.4e-09	8%	i	i
72	C=CC(=O)OC	-0.7%	/	2%	/	/
73	CC(C)c1nccn1Cc1ccc(Cl)cc1Cl	-2.6%[11.5 µM]	4.3e-08	?	i	i
74	CC1=C(C(=O)N2CCC3(CC2)OCCO3)C2(CCC(C)CC2)OC1=O (centres undefined)	-0.8%	5.5e-09	1%	i	i
75	C=CCOc1ccc(CC2C(=O)N(C)C(=O)N(C)C2=O)cc1	-0.1%	1e-09	0%	i	i
76	Cc1nc2c(-c3ccccc3)c(C)nn2c(C)c1CCC(=O)N1CCC2(CC1)OCCO2	0.7%	2.8e-08	4%	i	i
77	O=C(CCC1CCCC1)c1c(O)c2ccccc2oc1=O	-0.2%	/	?	/	/
78	O=C(O)[C@H]1[C@H](C(=O)O)[C@H]2CC[C@@H]1O2	-0.3%	1e-09	-77%[inhibitor]	i	i
79	CCOC(=O)c1ccc(NC(=O)C2C3C=CC(O3)C2C(=O)O)cc1 (centres undefined)	1.3%	/	-2%[11.4 µM]	/	/
80	CC1(C)C(c2ccccc2)=NC(c2cccnc2)N1O (centres undefined)	0.6%	/	20%	/	/
81	CCN1C[C@]2(COC)CC[C@H](O)[C@@]34[C@@H]5C[C@H]6[C@@H](OC)[C@H]5[C@](O)(C[C@@H]6OC)[C@@](O)([C@@H](OC)[C@H]23)[C@@H]14	-1.2%[25.7 µM]	2.8e-08	20%[25.6 µM]	i	i
